MT1-MMP promoter: inhibitors of MT1-MMP promoter transcription, cell-based, luciferase reporter, luminescence (AID 618); MT1-MMP promoter luciferase reporter cells, luminescence; calls from a first round at 10 µM; hits with a dose series show EC50 in µM; 87,000 compounds, 0.62% hits;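 active = over half of the reporter light lost at 10 µM or EC50 under 50 µM; inactive = the rest and hits that failed the dose series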;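 note: actives suppress MT1-MMP promoter-driven transcription so potencies describe inhibitors; HT1080 fibrosarcoma cells; overnight exposure; toxic or luciferase-blocking compounds were not removed from the actives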
WNV NS2B-NS3 inh: inhibitors of West Nile virus NS2B-NS3 protease. z-score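 (tested at a level between 10 and 100 µM)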. 65,000 compounds, 0.18% hits. WNV NS2B-NS3 protease, fluorogenic substrate Ex360/Em465; stronger effect = lower value. P06935. AID 577;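 active = z-score at -3 or under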;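 note: score is relative to mean and spread of the compound wells of a plate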
Target sequence (P06935 1371-1501 limits assumed): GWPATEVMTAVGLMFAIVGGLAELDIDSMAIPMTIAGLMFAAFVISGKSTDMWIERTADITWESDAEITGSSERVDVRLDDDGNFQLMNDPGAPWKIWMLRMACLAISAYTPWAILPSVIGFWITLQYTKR
Target sequence (P06935 1502-1679 limits assumed): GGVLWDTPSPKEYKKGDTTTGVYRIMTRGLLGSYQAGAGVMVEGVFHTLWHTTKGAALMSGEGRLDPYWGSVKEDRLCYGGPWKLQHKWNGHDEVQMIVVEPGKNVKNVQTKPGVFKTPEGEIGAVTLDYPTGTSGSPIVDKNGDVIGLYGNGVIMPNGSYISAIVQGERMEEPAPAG
Hsc70 ATP site: small molecules displacing fluorescent ligand from Hsc70 – biochemical, fluorescence polarization, primary screen (AID 568) | Hsc70 fluorescence polarization, probe displacement; higher % means a stronger effect; strong numbers were not always called active | displacement, % at 20 µM; hits with a dose series show IC50 in µM | 83,000 tested, under 10 active;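 active = displacement above 50% without optical interference and an IC50 on retest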;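 note: ATPase domain with a fluorescein-tagged ATP probe; 0% = vehicle and 100% = excess ADP; read after one hour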
* hit, by the source's call; i = inactive; x = not tested or not shown; + = active, no number.

Every second line gives: MT1-MMP promoter	WNV NS2B-NS3 inh	Hsc70 ATP site
Cc1ccc(S(=O)(=O)N2CCN(C(=O)COC(=O)COc3ccccc3)CC2)cc1
    i	-0.33	4.8%
CS(=O)(=O)N1CCN(C(=O)c2ccncc2)CC1
    i	-0.49	3.8%
CC(=O)c1sc(NC(=O)c2ccccc2F)nc1C
    i	-0.88	2.9%
COCCCNc1nc2c(c(=O)n(C)c(=O)n2C)n1Cc1cccc(OC)c1
    i	-0.1	-0.3%
CC(=O)Nc1c2c3c(cccc3n(C)c1=O)C(=O)c1ccccc1-2
    i	1.4	32%
OC1CCCN(Cc2cccc3ccccc23)C1 (stereo unspecified)
    i	-0.64	2.0%
Cc1cccc(-c2noc(CCC(=O)NCc3ccco3)n2)c1
    i	x	3.5%
CC(CN1CCCCC1)OC(=O)c1ccc2c(c1)OCO2 (stereo unspecified)
    i	-0.58	-2.7%
CC(c1ccccc1)n1cc(C(=O)NCc2ccccn2)nn1 (stereo unspecified)
    i	1.1	-6.8%
O=C(COC(=O)c1cccnc1Cl)c1ccccc1
    i	x	-2.2%
CC1=C(C(=O)Nc2ccc(C)cc2)C(c2ccc(N(C)C)cc2)NC(=O)N1 (stereo unspecified)
    i	-0.12	5.6%
O=C1CCCC(=NCc2ccco2)C1
    i	1.5	0.8%
CCN1C(=O)/C(=C\N2CCOCC2)SC1=S
    i	x	-2.2%
CC(C)CCn1c(CN2CCN(Cc3ccccc3)CC2)nc2c1c(=O)n(C)c(=O)n2C
    i	-0.0069	0.8%
CCOC(=O)c1ccc(N=C2C(=S)N(c3ccc(C(=O)OCC)cc3)C(=N)N2/N=C/c2ccccc2)cc1
    i	x	-2.7%

Three records drawn at random from those above:
Every second line gives: MT1-MMP promoter	WNV NS2B-NS3 inh	Hsc70 ATP site
CS(=O)(=O)N1CCN(C(=O)c2ccncc2)CC1
    i	-0.49	3.8%
CC(C)CCn1c(CN2CCN(Cc3ccccc3)CC2)nc2c1c(=O)n(C)c(=O)n2C
    i	-0.0069	0.8%
CCOC(=O)c1ccc(N=C2C(=S)N(c3ccc(C(=O)OCC)cc3)C(=N)N2/N=C/c2ccccc2)cc1
    i	x	-2.7%

New compounds follow:
Every second line gives: MT1-MMP promoter	WNV NS2B-NS3 inh	Hsc70 ATP site
Cc1nc2cc(NC(=O)COc3ccc(C#N)cc3)ccc2n1-c1ccccc1
    i	-0.64	7.8%
c1ccc(-c2nc[nH]c2-c2ccccc2)cc1
    i	-1.1	2.4%
Cc1ccc(-c2nn3c(C)nnc3s2)cc1NCc1c(F)cccc1Cl
    i	0.14	-3.3%
Cc1ccc(Nc2nnc(SCc3ccccc3)s2)cc1
    i	x	0.6%
O=C(CCn1c(=O)oc2ccccc21)Nc1nccs1
    i	1.6	-6.4%
CCCCOc1ccc(NC2=NC3(CCCC3)N=C(N)N2)cc1
    i	-0.32	2.0%
Cc1ccc(C(=O)Nc2ccccc2C(=O)NCc2ccco2)cc1S(=O)(=O)N1CCCCC1
    i	-0.54	-7.6%
Cn1c(CSc2nc3ccc(Br)cc3[nH]2)nc2ccccc21
    i	3.2	2.0%
CCCCc1nc(SCC(=O)Nc2ccc(S(N)(=O)=O)cc2)n[nH]1
    i	-0.12	-0.5%
CC(C)N1C(=O)C2C(C(=O)NCc3ccccc3)C3C=CC2(O3)C1C(=O)NC(C)(C)C (stereo unspecified)
    i	0.14	-3.8%
CN(C)c1nc2n(c(=O)n1)CCO2
    i	-0.0051	1.6%
COc1ccc(Cn2nnnc2C(c2ccccc2)N2CCN(C3CCCC3)CC2)cc1 (stereo unspecified)
    i	0.2	-5.1%
CC1CC(C)CN(c2ncc3c(n2)CC(c2ccccc2Cl)CC3=O)C1 (stereo unspecified)
    i	0.16	3.1%
Cc1nnc2sc(-c3ccc(NC(=O)CSc4ccc(Cl)cc4)cc3)nn12
    i	-0.19	2.5%
COc1cccc(NS(=O)(=O)c2ccc(S(=O)(=O)N3CCOCC3)cc2)c1
    i	-0.56	-0.6%
O=C(C1CCN(S(=O)(=O)c2cccc3nsnc23)CC1)N1CCCc2ccccc21
    i	-0.16	6.3%
COc1ccc(N(CC(=O)NCCSC2CCCCC2)S(C)(=O)=O)c(OC)c1
    i	x	3.2%
C/C(Cl)=C/Cn1c(NCCCn2ccnc2)nc2c1c(=O)[nH]c(=O)n2C
    i	-1.6	5.0%
COc1ccc(S(=O)(=O)NC(C)(C)C)cc1-c1nnc2c3ccccc3c(C)nn12
    i	x	2.1%
CCOCCCN(C(=O)Cn1nnc2ccccc21)C(C(=O)NCc1ccco1)c1ccncc1 (stereo unspecified)
    i	-0.15	4.3%
Cc1ccc2c(c1)nnn2C1CCN(CC(=O)NCCc2nc3ccccc3[nH]2)CC1
    i	-0.81	6.9%
COc1ccc(-c2noc(CCC(=O)NCCCN3CCC(Cc4ccccc4)CC3)n2)cc1
    i	0.81	0.9%
O=C(O)C1CC(=O)N(CCc2ccccc2)C1 (stereo unspecified)
    i	x	2.2%
COC(=O)c1ccccc1NC(=O)c1cc(C2CC2)on1
    i	-2.3	-1.2%
Cc1ccc(NC(=O)CSc2nnc(COc3ccc(C#N)cc3)n2-c2ccccc2)cc1C
    i	-1.5	-3.5%
CCOC(=O)CC1=NC(=O)CS1
    i	-0.74	-8.3%
Cc1cc(=O)n2nc(N3CCCC(C(=O)N4CCOCC4)C3)sc2n1 (stereo unspecified)
    i	0.32	1.0%
COc1ccc(CNC(=O)c2ccc(NC(=O)C3CCCO3)cc2)cc1 (stereo unspecified)
    i	1.9	6.0%
COc1ccc(C(C)N2CC34C=CC(O3)C(C(=O)OCC(C)C)C4C2=O)cc1 (stereo unspecified)
    i	-0.17	-1.2%
CC(N=Cc1cccc(O)c1O)c1ccccc1 (stereo unspecified)
    i	-0.37	4.1%
CCCCC(CCC(=O)Nc1nccs1)C(=O)O (stereo unspecified)
    i	x	-0.1%
CCCN(CCC)c1nc2ccccc2nc1C(C#N)C(=O)OCCOC (stereo unspecified)
    i	-0.45	-17%
COc1ccc(CCNC(=O)CCS(=O)(=O)c2ccc(C)cc2)cc1OC
    i	x	-2.7%
C=CCN(CC(=O)NCC1CCCO1)C(=O)CCC(=O)Nc1cc(C)on1 (stereo unspecified)
    i	0.67	-0.6%
Cc1cccc(/C=N/n2c(C)cc(C)c(C#N)c2=O)c1
    i	x	-1.8%
O=C(CN1CCN(c2ccccn2)CC1)N1c2ccccc2Sc2ccc(C(F)(F)F)cc21
    i	0.87	5.0%
COc1ccc(N2CCN(C(=O)Cc3cccs3)CC2)cc1
    i	x	-7.2%
CN1C(=O)c2ccccc2Sc2ccc(NC(=O)NC3CC3)cc21
    i	0.69	0.3%
CC(=O)c1c(Nc2ccc3c(c2)OCCO3)oc(C)cc1=O
    i	-1.8	3.1%
CC(=Nc1ccc2c(c1)nc(CO)n2C)C1=C(O)CC(C)(C)CC1=O
    i	-0.77	3.8%
Cc1ccc(-c2nc(SCC(N)=O)c(C#N)c3c2CCCC3)cc1
    i	x	-1.2%
CCOc1ccc(NC(=O)C2CC(=O)N(C)C(=Nc3ccc4c(c3)OCO4)S2)cc1 (stereo unspecified)
    i	-0.48	2.0%
Cc1ccc(SCc2cc(=O)n3[nH]c(C)nc3n2)cc1
    i	-0.52	8.4%
COCCCNc1cc(C)nc2ccccc12
    i	x	0.4%
CCOC(=O)Cn1c(=O)c2c(nc3n2CCS3)n(C)c1=O
    i	1.6	2.0%

Three neighbouring compounds already listed, quoted:
Every second line gives: MT1-MMP promoter	WNV NS2B-NS3 inh	Hsc70 ATP site
CCCCC(CCC(=O)Nc1nccs1)C(=O)O (stereo unspecified)
    i	x	-0.1%
CCCN(CCC)c1nc2ccccc2nc1C(C#N)C(=O)OCCOC (stereo unspecified)
    i	-0.45	-17%
COc1ccc(CCNC(=O)CCS(=O)(=O)c2ccc(C)cc2)cc1OC
    i	x	-2.7%

Next results:
Every second line gives: MT1-MMP promoter	WNV NS2B-NS3 inh	Hsc70 ATP site
O=S1(=O)CCN2C(Cc3ccc(SC(F)F)cc3)=CSC2=N1
    i	-0.46	2.0%
CN(CC(=O)NC1CCCCC1)S(=O)(=O)c1cccc2cccnc12
    i	-0.63	-1.8%
O=C(CCn1c(=O)oc2ccccc21)NCc1ccco1
    i	0.95	4.5%
CCCCCCn1c(C)nc2c(c1=O)c1nc3ccccc3nc1n2/N=C/c1ccco1
    i	x	-10%
Cc1ccc(NC(=O)Cn2cnc3sc(C(=O)NCCN(C)C)c(C)c3c2=O)cc1Cl
    i	x	-0.7%
Cc1ccccc1NC(=O)C1(C)Cc2ccccc2C(=O)O1 (stereo unspecified)
    i	x	0.7%
O=C(NCc1cccnc1)c1cccc(F)c1
    i	-0.1	-1.1%
N#Cc1c(-c2ccco2)cc(-c2ccccn2)nc1N
    i	1.8	2.2%
Cc1ccc(-c2csc3nnc(SCc4csc(C)n4)n23)cc1
    i	-0.98	1.3%
CC(=O)Nc1nc(C)nc(-c2ccccc2OC(C)=O)n1
    i	-1.6	-0.8%
COc1ccccc1NC(=O)CN1CCN(CC(=O)Nc2ccc3c(c2)OCO3)CC1
    i	-0.18	3.9%
O=C1CC(c2cccs2)CC2=C1C(c1ccccc1)n1ncnc1N2 (stereo unspecified)
    i	-0.63	-0.9%
COc1ccc(CC(=O)OCc2cc3ccc(C)cc3[nH]c2=O)cc1
    i	-0.16	4.3%
COc1ccc(-c2cc(C(=O)NCc3ccc(Cl)cc3)no2)cc1OC
    i	0.24	-2.0%
Cc1ccc(CN2CCN(CC3CC4C=CC3C4)CC2)cc1 (stereo unspecified)
    i	x	0.7%
CCOCCCn1c(=N)c(C(N)=S)cc2c(=O)n3cccc(C)c3nc21
    i	1.1	6.1%
C=CCSc1nnc(-c2cccnc2)o1
    i	-0.5	5.0%
Cc1cccc(OCC(O)Cn2c(=N)n(CCN3CCCCC3)c3ccccc32)c1 (stereo unspecified)
    i	0.45	0.6%
O=C(CCS(=O)(=O)c1ccc(Br)cc1)NCc1cccs1
    i	-0.04	1.4%
COc1ccc(C(=O)Cn2nnc(-c3ccccc3NC(=O)C3CC3)n2)cc1
    i	0.11	6.8%
CCOc1ccccc1NC(=O)c1ccccc1N(C)S(C)(=O)=O
    i	0.57	4.5%
OC(COc1ccc2c(c1)CCC2)Cn1cnc2ccccc21 (stereo unspecified)
    i	-1.1	-3.0%
COc1cc(NC(=O)c2ccccc2)c(OC)cc1NC(C)=O
    i	0.99	-2.4%
COCCCNC(CC(=O)Nc1ccc(N(C)C)cc1)C(=O)O (stereo unspecified)
    i	0.71	-1.0%
Cn1c(=O)[nH]c(=O)c2c1nc(SCC(=O)Nc1ccccc1)n2Cc1ccccc1
    i	-0.29	0.9%
Cn1c(=O)c2[nH]cnc2n(C)c1=O
    i	-0.51	0.1%
CCc1nc2n[nH]c(N)c2c2c1CSC(C)(C)C2
    i	-1.2	1.8%
O=C(O)CCCC(=O)Nc1ccc(C(=O)N2CCCCC2)cc1
    i	2.4	-4.0%
Cc1c(C(=O)OCc2ccccc2)[nH]c2c1C(=O)CC(c1ccco1)C2 (stereo unspecified)
    +	-0.63	1.4%
CC1CCc2c(sc3nc(SCC(=O)NCc4ccco4)nc(N)c23)C1 (stereo unspecified)
    i	0.14	-1.7%
COc1cc(/C=C2/N=C(C3CCCCC3)OC2=O)cc(OC)c1OC
    i	x	3.7%
CSc1cnn(-c2ccccc2)c(=O)c1SC
    i	-1.1	0.0%
Cc1ccc(OCC(=O)n2nc(C)cc2C)c(Br)c1
    i	-0.5	-1.2%
Cc1nc2sc(-c3ccccc3)cc2c(=O)[nH]1
    i	x	-2.8%
CCOC(=O)NCc1ccc(S(=O)(=O)Nc2ccc(C)cc2)cc1
    i	x	-1.6%
CCOC(=O)c1[nH]cnc1C(=O)Nc1ccccn1
    i	-0.66	5.1%
CC(=O)NCCn1c(SCC(=O)c2ccccc2)nc2ccccc2c1=O
    i	0.54	1.0%
CCCNC(=O)c1ccccc1C(=O)NCCC
    i	1.5	-0.1%
O=C(Nc1ccc2nsnc2c1)c1ccc2c(c1)OCO2
    i	0.02	0.4%
Cc1cc(C)c2c(n1)nn1c(NCCOCCO)cc(C)nc21
    i	3.1	1.0%
Cc1nnc2n1N=CC=C(C(C)(C)C)S2
    i	-0.5	-1.2%
CCCCC(=O)NCCc1cc2ccc(OC)cc2[nH]c1=O
    i	0.27	6.2%
COc1cc(N2C(=O)c3ccccc3C2=O)c(Cl)cc1C(=O)OCC(=O)NCc1ccco1
    i	1.2	1.0%
Cc1ccc(S(=O)(=O)NC(=O)Nc2ccc(Cl)cn2)cc1
    i	-0.31	-0.3%
Nc1nnnn1/N=C/c1ccccc1C(F)(F)F
    i	-0.9	3.7%
CCOc1ccccc1NC(=O)COn1nnc2ccccc21
    i	x	-3.1%
CN(CC(=O)N1CCN(c2ccccn2)CC1)S(=O)(=O)c1ccc(Br)cc1
    i	-0.0023	-0.8%
Cc1ccc(C)n1/N=C1/NC(=O)CS1
    i	0.21	-3.3%
O=C(O)CCCCCN1C(=O)C2CCCCC2C1=O (stereo unspecified)
    i	x	-2.2%
Cc1nn(CC(=O)N(C)C)c(=O)c2ccccc12
    i	-0.91	4.1%
Cc1ccc2c(CC(=O)O)coc2c1C
    i	0.54	7.2%

High-throughput results: PubChem, several laboratories
